# YB-1 expression: YB-1 expression inhibition. U2OS, qRT-PCR YB-1 vs CDIP delta delta Cp, 16 h; active compounds read high; zero = DMSO, each unit about twofold. AID 434959. delta delta Cp (YB-1 minus CDIP) (no concentration beside the values). 0.37% of 30,000 active;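 active means delta delta Cp rounded down to an integer at or above 3, about 3 SD of DMSO wells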;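 further: higher means less YB-1 transcript or more CDIP transcript relative to DMSO; stock transfer was 100 nL into about 100 µL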
# Starred values were filed as active, the others as inactive. Only part of the results is shown; count on the stated rates, not on these rows.
SMILES,YB-1 expression
C[C@H]1CN([C@@H](C)CO)C(=O)CCCn2cc(nn2)CO[C@H]1CN(C)C(=O)Nc1cccc(C(F)(F)F)c1,-0.3
O=C(O)CCCCCC(=O)N/N=C/c1ccc(C(F)(F)F)cc1,-0.38
COCCOC(=O)N1C(=O)[C@@]2(c3ccccc31)[C@H](c1ccc(OCCO)cc1)N1[C@H](c3ccccc3)[C@H](c3ccccc3)OC(=O)[C@H]1[C@@H]2C(=O)NC[C@H](O)c1ccccc1,-0.51
COc1ccc(NC(=O)O[C@H](c2ccc(OCCO)cc2)[C@@H](CCO)OC)cc1,-1.3
COCCOC(=O)N1C(=O)[C@@]2(c3ccccc31)[C@H](c1ccccc1OCCO)N1[C@H](c3ccccc3)[C@H](c3ccccc3)OC(=O)[C@H]1[C@@H]2C(=O)NC[C@H](O)c1ccccc1,-0.49
C[C@@H]1CN([C@H](C)CO)C(=O)CCCn2nncc2CO[C@@H]1CN(C)Cc1ccccc1,0.26
COc1ccc(-c2cnc3c(c2)C(=O)N([C@H](C)CO)C[C@H](C)[C@H](CN(C)Cc2ccncc2)O3)cc1,0.55
C[C@H](CO)N1C[C@H](C)[C@H](CN(C)C(=O)NC2CCCC2)OCc2cn(nn2)CCCC1=O,-0.22
COc1ccc(Br)c(/C=N/NC(=O)c2ccccc2O)c1,0.51
C[C@H]1CN([C@@H](C)CO)C(=O)CCCn2nncc2CO[C@@H]1CN(C)C(=O)Nc1ccc(-c2cccs2)cc1,-0.045
Cc1ccc(S[C@]2(C(=O)NC(C)C)CC(=O)N(C3CCCCC3)[C@@H]2c2ccc(CO)cc2I)cc1,0.11
C[C@H]1CN([C@@H](C)CO)C(=O)CCCn2nncc2CO[C@H]1CN(C)C(=O)OCc1ccccc1,0.055
C[C@H](CO)N1C[C@H](C)[C@H](CN(C)Cc2ccccc2)Oc2ncc(-c3cccc(F)c3)cc2C1=O,-0.36
COC(=O)CCCCCCC(=O)N/N=C/c1ccc(-c2cccc(Cl)c2)o1,-0.15
C[C@@H]1CN([C@H](C)CO)C(=O)CCCn2nncc2CO[C@@H]1CN(C)C(=O)Nc1cccc(Oc2ccccn2)c1,0.23
C[C@H](CO)N1C[C@H](C)[C@H](CN(C)S(=O)(=O)c2cn(C)cn2)Oc2ncc(C#Cc3ccc(F)cc3)cc2C1=O,-0.71
Cc1ccc(CN(C)C[C@H]2OCc3cnnn3CCCC(=O)N([C@H](C)CO)C[C@@H]2C)cc1,-0.86
CC(C)(C)OC(=O)NC/C=N/NC(=O)CCCCC(=O)NO,-0.1
O=C(NO)c1cccc(C(=O)N/N=C/c2ccc(F)cc2)c1,-0.34
COc1ccc([Si](C)(C)[C@@H]2[C@@H](CCO)O[C@]3(C(=O)N(Cc4ccc(N5CCC5=O)cc4)c4ccccc43)[C@H]2C)cc1,0.026

# 6 of the entries above in order of the YB-1 expression value, falling:
SMILES,YB-1 expression
Cc1ccc(S[C@]2(C(=O)NC(C)C)CC(=O)N(C3CCCCC3)[C@@H]2c2ccc(CO)cc2I)cc1,0.11
COc1ccc([Si](C)(C)[C@@H]2[C@@H](CCO)O[C@]3(C(=O)N(Cc4ccc(N5CCC5=O)cc4)c4ccccc43)[C@H]2C)cc1,0.026
COC(=O)CCCCCCC(=O)N/N=C/c1ccc(-c2cccc(Cl)c2)o1,-0.15
O=C(NO)c1cccc(C(=O)N/N=C/c2ccc(F)cc2)c1,-0.34
C[C@H](CO)N1C[C@H](C)[C@H](CN(C)S(=O)(=O)c2cn(C)cn2)Oc2ncc(C#Cc3ccc(F)cc3)cc2C1=O,-0.71
Cc1ccc(CN(C)C[C@H]2OCc3cnnn3CCCC(=O)N([C@H](C)CO)C[C@@H]2C)cc1,-0.86

# Carrying on:
SMILES,YB-1 expression
COc1cccc(S(=O)(=O)N(C)C[C@@H]2OCc3cnnn3CCCC(=O)N([C@H](C)CO)C[C@H]2C)c1,-0.073
C[C@@H]1CN([C@H](C)CO)C(=O)CCCn2nncc2CO[C@H]1CN(C)S(=O)(=O)c1cccc(C#N)c1,-0.27
C=CCNC(=O)[C@H]1[C@@H]2C(=O)O[C@@H](c3ccccc3)[C@@H](c3ccccc3)N2[C@@H](c2ccccc2OCCO)[C@]12C(=O)Nc1ccc(C#CC3(O)CCCCCC3)cc12,-0.2
COc1ccc(OC(=O)N(C)C[C@@H]2OCc3cn(nn3)CCCC(=O)N([C@H](C)CO)C[C@@H]2C)cc1,-0.93
Cc1ccccc1S(=O)(=O)N(C)C[C@H]1OCc2cn(nn2)CCCC(=O)N([C@H](C)CO)C[C@H]1C,-0.16
O=C(O)CCCCCC(=O)N/N=C/c1ccc(F)cc1,0.21
COc1ccc(OC(=O)N(C)C[C@H]2OCc3cn(nn3)CCCC(=O)N([C@H](C)CO)C[C@H]2C)cc1,-0.12
C[C@H](CO)N1C[C@H](C)[C@@H](CN(C)C(=O)Nc2ccc3c(c2)OCCO3)OCc2cnnn2CCCC1=O,-0.13
Cc1ccccc1/C=N/NC(=O)c1ccccn1,-0.58
C[C@H](CO)N1C[C@H](C)[C@H](CN(C)S(=O)(=O)c2cn(C)cn2)Oc2ncc(Br)cc2C1=O,-0.11
COc1ccc(S(=O)(=O)N(C)C[C@@H]2Oc3ncc(C#Cc4ccc(C(F)(F)F)cc4)cc3C(=O)N([C@H](C)CO)C[C@@H]2C)cc1,0.31
C[C@@H]1CN([C@@H](C)CO)C(=O)CCCn2nncc2CO[C@@H]1CN(C)C(=O)Nc1cccc(Oc2ccccn2)c1,0.47
CCCC(O)C#Cc1cnc2c(c1)C(=O)N([C@H](C)CO)C[C@H](C)[C@H](CN(C)C(=O)Nc1ccc(OC)cc1)O2 (stereo not given in full),0.16
C[C@@H]1CN([C@H](C)CO)C(=O)CCCn2nncc2CO[C@H]1CN(C)S(=O)(=O)c1cn(C)cn1,0.19
CC(C)(C)OC(=O)N1CCC[C@H]1/C=N/NC(=O)CCCCC(=O)NO,-0.35
COc1cccc(-c2cnc3c(c2)C(=O)N([C@H](C)CO)C[C@H](C)[C@H](CN(C)C(=O)Nc2cccc4ccccc24)O3)c1,0.4
COc1ccc(S(=O)(=O)N2CCN(Cc3cccc(OCCO)c3)CC2)cc1,-0.38
C[C@H](CO)N1C[C@H](C)[C@H](CN(C)S(=O)(=O)c2cn(C)cn2)Oc2ncc(-c3cccc(C(F)(F)F)c3)cc2C1=O,-0.29
O=C(CCCCC(=O)N/N=C/c1ccc[nH]1)NO,0.079
C[C@H](CO)N1C[C@H](C)[C@H](CN(C)Cc2ccc(O)cc2)OCc2cnnn2CCCC1=O,0.2
COC(=O)C(CC#Cc1ccc2c(c1)[C@]1(C(=O)N2)[C@H](C(=O)N2CCN(c3ncccn3)CC2)[C@H]2C(=O)O[C@H](c3ccccc3)[C@H](c3ccccc3)N2[C@@H]1c1ccc(O)cc1)C(=O)OC,-0.41
C[C@@H]1CN([C@@H](C)CO)C(=O)CCCn2cc(nn2)CO[C@@H]1CN(C)Cc1ccc(Oc2ccccc2)cc1,-0.31
Cc1noc(C)c1NC(=O)N(C)C[C@H]1OCc2cn(nn2)CCCC(=O)N([C@@H](C)CO)C[C@@H]1C,0.033
COc1ccccc1S(=O)(=O)N(C)C[C@@H]1OCc2cn(nn2)CCCC(=O)N([C@@H](C)CO)C[C@H]1C,0.2
O=C(NO)c1ccc(C(=O)N/N=C/c2cc(O)ccc2Br)cc1,0.05
C[C@@H]1CN([C@H](C)CO)C(=O)CCCn2nncc2CO[C@@H]1CN(C)C(=O)Nc1cccc2ccccc12,0.28
C=CCN1C(=O)[C@]2(O[C@H](CCO)[C@@H]([Si](C)(C)c3ccc(OC)cc3)[C@@H]2C)c2cc(N3CCC3=O)ccc21,-0.096
C[C@H](CO)N1C[C@H](C)[C@H](CN(C)C(=O)NC2CCCC2)Oc2ncc(-c3cccc(F)c3)cc2C1=O,0.3
C[C@@H]1CN([C@@H](C)CO)C(=O)CCCn2cc(nn2)CO[C@H]1CN(C)S(=O)(=O)c1ccc(-c2ccccc2)cc1,-0.41
O=C(CCCCCCC(=O)Nc1ccccc1O)N/N=C\c1ccc2ccccc2n1,-0.22
COc1ccc(NC(=O)N(C)C[C@@H]2Oc3ncc(C#Cc4ccccc4)cc3C(=O)N([C@H](C)CO)C[C@@H]2C)cc1,-0.16
C[C@@H]1CN([C@H](C)CO)C(=O)CCCn2nncc2CO[C@H]1CN(C)Cc1cccc2c1OCCCO2,-0.062
O=C1O[C@@H](c2ccccc2)[C@@H](c2ccccc2)N2[C@@H](c3ccc(OCCO)cc3)[C@]3(C(=O)Nc4ccccc43)[C@@H](C(=O)N3CCN(c4ncccn4)CC3)[C@H]12,-0.19
O=C(CCCCCCC(=O)Nc1ccccc1O)N/N=C/c1ccc2c(c1)Cc1ccccc1-2,0.46
O=C(Nc1ccccc1)C1=C[C@@H](c2ccc3c(c2)Cc2ccccc2-3)C[C@@H](OCc2ccc(CO)cc2)O1,0.31
C[C@H](CO)N1C[C@H](C)[C@H](CN(C)S(=O)(=O)c2ccc(F)cc2)Oc2ncc(C#Cc3ccccc3)cc2C1=O,-0.22
O=S(=O)(N[C@@H]1CCCN(Cc2cccc(OCCO)c2)C1)c1cc(Cl)ccc1Cl,-0.27
C[C@H](CO)N1C[C@H](C)[C@H](CN(C)C(=O)c2cc(-c3ccccc3)on2)OCc2cnnn2CCCC1=O,0.38
C[C@@H]1CN([C@@H](C)CO)C(=O)CCCn2nncc2CO[C@H]1CN(C)Cc1ccc(O)cc1,-0.47
C[C@@H]1CN([C@H](C)CO)C(=O)CCCn2nncc2CO[C@@H]1CN(C)S(=O)(=O)c1ccccc1C#N,-0.17
COC(=O)[C@]1(CO)N=C(c2ccc(OCCCO)cc2)O[C@@H]1c1ccccc1CN=[N+]=[N-],-0.19
O=S(=O)(NC1CCN(Cc2ccc(OCCO)cc2)CC1)c1cc(Cl)ccc1Cl,0.17
COc1ccc(CN(C)C[C@H]2OCc3cnnn3CCCC(=O)N([C@@H](C)CO)C[C@H]2C)cc1,-0.17
CC(C)(C)OC(=O)NC/C=N/NC(=O)CCCCCCC(=O)Nc1ccccc1O,0.33
C[C@H](CO)N1C[C@H](C)[C@H](CN(C)S(=O)(=O)c2ccccc2)Oc2ncc(C#CC(C)(C)O)cc2C1=O,0.2
C=CCN1C(=O)[C@]2(O[C@H](CCn3cc(CCO)nn3)[C@@H]([Si](C)(C)c3ccc(OC)cc3)[C@@H]2C)c2cc(N3C(=O)c4cccc5cccc3c45)ccc21,-0.17
C[C@H]1CN([C@@H](C)CO)C(=O)CCCn2nncc2CO[C@H]1CN(C)C,-0.051
C[C@H](CO)N1C[C@H](C)[C@H](CN(C)C)Oc2ncc(-c3cccc(C(F)(F)F)c3)cc2C1=O,-0.41
COCCOC(=O)N1C(=O)[C@@]2(c3cc(C#Cc4ccc(OC)cc4)ccc31)[C@H](C(=O)NC[C@H](O)c1ccccc1)[C@H]1C(=O)O[C@H](c3ccccc3)[C@H](c3ccccc3)N1[C@@H]2c1ccc(O)cc1,0.45
O=C1O[C@H](c2ccccc2)[C@H](c2ccccc2)N2[C@H]1[C@@H](C(=O)NC[C@H](O)c1ccccc1)[C@]1(C(=O)Nc3ccccc31)[C@H]2c1ccc(OCCO)cc1,-1.1

# Some of these compounds in order of heavy-atom count, rising.
SMILES,YB-1 expression
C[C@H]1CN([C@@H](C)CO)C(=O)CCCn2nncc2CO[C@H]1CN(C)C,-0.051
COC(=O)CCCCCCC(=O)N/N=C/c1ccc(-c2cccc(Cl)c2)o1,-0.15
COc1ccc(S(=O)(=O)N(C)C[C@@H]2Oc3ncc(C#Cc4ccc(C(F)(F)F)cc4)cc3C(=O)N([C@H](C)CO)C[C@@H]2C)cc1,0.31

# (further entries)
SMILES,YB-1 expression
C[C@H](CO)N1C[C@H](C)[C@H](CN(C)Cc2ccncc2)Oc2ncc(C#Cc3ccccc3)cc2C1=O,-0.1
COC(=O)c1ccc(/C=N/NC(=O)c2cccc(C(=O)NO)c2)cc1,0.026
C[C@H](CO)N1C[C@H](C)[C@@H](CN(C)S(=O)(=O)c2cn(C)cn2)OCc2cn(nn2)CCCC1=O,-0.25
COC(=O)N(C)C[C@H]1OCc2cnnn2CCCC(=O)N([C@@H](C)CO)C[C@H]1C,-0.0072
COc1ccc(C#Cc2cnc3c(c2)C(=O)N([C@H](C)CO)C[C@H](C)[C@H](CN(C)C(=O)Nc2c(C)noc2C)O3)cc1OC,0.091
C=CCNC(=O)[C@H]1[C@@H]2C(=O)O[C@@H](c3ccccc3)[C@@H](c3ccccc3)N2[C@@H](c2ccc(O)cc2)[C@]12C(=O)N(C(=O)OCCOC)c1ccc(C#CCC(C(=O)OC)C(=O)OC)cc12,-0.34
CCn1c2ccccc2c2cc(/C=N/NC(=O)c3ccccn3)ccc21,-0.2
C[C@@H]1CN([C@@H](C)CO)C(=O)CCCn2nncc2CO[C@@H]1CN(C)C(=O)NC1CCCC1,0.26
COc1ccc(NC(=O)N(C)C[C@@H]2Oc3ncc(-c4ccc(F)cc4)cc3C(=O)N([C@H](C)CO)C[C@@H]2C)cc1,0.093
C[C@H]1CN([C@@H](C)CO)C(=O)CCCn2nncc2CO[C@@H]1CN(C)C(=O)Nc1ccnc(N2CCOCC2)c1,0.097
C[C@H](CO)N1C[C@H](C)[C@H](CN(C)C(=O)Nc2ccc3c(c2)OCO3)OCc2cnnn2CCCC1=O,0.12
C[C@@H]1CN([C@@H](C)CO)C(=O)CCCn2nncc2CO[C@@H]1CN(C)S(=O)(=O)c1cn(C)cn1,0.11
C[C@H]1CN([C@@H](C)CO)C(=O)CCCn2nncc2CO[C@H]1CN(C)C(=O)Nc1cccc(C(F)(F)F)c1,0.16
C=C[C@@H](C)[C@@H](OC(=O)Nc1ccc(OC)cc1)c1ccc(OCCO)cc1,0.17
O=C(CCCCCCC(=O)Nc1ccccc1O)N/N=C/c1ccc(C(=O)O)cc1,-0.1
COc1ccc(S(=O)(=O)N[C@@H]2CCCN(Cc3ccc(OCCO)cc3)C2)cc1,0.19
C[C@H]1CN([C@@H](C)CO)C(=O)CCCn2cc(nn2)CO[C@H]1CN(C)C(=O)Nc1cccc2ccccc12,0.28

# Entries from the list above with a cyano group (two):
SMILES,YB-1 expression
C[C@@H]1CN([C@H](C)CO)C(=O)CCCn2nncc2CO[C@H]1CN(C)S(=O)(=O)c1cccc(C#N)c1,-0.27
C[C@@H]1CN([C@H](C)CO)C(=O)CCCn2nncc2CO[C@@H]1CN(C)S(=O)(=O)c1ccccc1C#N,-0.17

# Screening results (PubChem BioAssay)
